D2 PAM: Beta-Arrestin HTS for Positive Allosteric Modulators of the Human D2 Dopamine Receptor: Potentiators; DiscoveRx D2 beta-arrestin cells, luminescence, 90 min; 100% = 57 uM dopamine signal; potentiation, % (no concentration beside the values); 360,000 compounds, 0.23% hits; AID 624464, 2012; active = potentiation of 50% or more; inconclusive = 30% to 50%; inactive = 30% or less;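 also: compound concentration not given in the record; tested on top of an EC20 dose of dopamine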
Target sequence (P14416 whole entry, looked up): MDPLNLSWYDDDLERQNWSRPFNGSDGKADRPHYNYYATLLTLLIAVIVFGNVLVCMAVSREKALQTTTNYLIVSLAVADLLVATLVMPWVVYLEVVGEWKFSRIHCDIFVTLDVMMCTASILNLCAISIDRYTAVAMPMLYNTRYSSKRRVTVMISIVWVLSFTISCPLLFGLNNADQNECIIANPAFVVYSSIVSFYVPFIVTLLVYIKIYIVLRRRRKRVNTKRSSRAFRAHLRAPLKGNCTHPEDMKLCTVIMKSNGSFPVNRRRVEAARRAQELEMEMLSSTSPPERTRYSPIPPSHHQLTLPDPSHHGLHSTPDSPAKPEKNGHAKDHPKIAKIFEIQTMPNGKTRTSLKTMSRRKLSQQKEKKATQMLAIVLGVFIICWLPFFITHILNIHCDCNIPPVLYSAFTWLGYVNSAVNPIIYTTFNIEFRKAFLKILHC
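PathHunter D2 cells, attached overnight at 37 deg C, received compound in DMSO plus dopamine at EC20 (50 nM final) for 90 min at 37 deg C. Beta-arrestin recruitment was read as luminescence after 1 h with detection reagent at ambient temperature.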
CtBP-E1A inh: qHTS Assay for Inhibitors of the CtBP/E1A Interaction; activity change, % (concentration not given with the values); AlphaScreen GST-E1A/His-CtBP binding, 1536-well; hits give low values; control for the full effect not named in the record; 340,000 compounds, 0.49% hits; in the data active means activity change below about -65%; inconclusive means about -30% to -65%; inactive means above about -30%; also: % is scaled to controls: 0 for no effect and ±100 for the full control effect
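Steps: dispense buffer (Tris pH 8.0, NaCl 300 mM, TCEP 1 mM, BSA, Tween 20); add 5X protein mix (GST-E1A, His-CtBP, 125 nM each); pin 23 nL compound; 2 h at 37 °C, dark; add 5X beads (50 ug/mL); 1 h; read.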
TRPML1 ag: qHTS for Agonists of the Human Mucolipin Transient Receptor Potential 1 (TRPML1); activation, % (no concentration beside the values); 410,000 compounds, 0.12% hits; TRPML1-expressing cells, Ca2+ dye fluorescence, FDSS; host cell line not named in the record; reference of the full effect not given here; Mucolipin-1 (Homo sapiens), Q9GZU1; in the data active = activation above about 50%; inconclusive = about 30% to 50%; inactive = below about 30%; also: 0% is about no effect; the text of the record puts the active cut at 80%
Target sequence (Q9GZU1 whole entry, looked up): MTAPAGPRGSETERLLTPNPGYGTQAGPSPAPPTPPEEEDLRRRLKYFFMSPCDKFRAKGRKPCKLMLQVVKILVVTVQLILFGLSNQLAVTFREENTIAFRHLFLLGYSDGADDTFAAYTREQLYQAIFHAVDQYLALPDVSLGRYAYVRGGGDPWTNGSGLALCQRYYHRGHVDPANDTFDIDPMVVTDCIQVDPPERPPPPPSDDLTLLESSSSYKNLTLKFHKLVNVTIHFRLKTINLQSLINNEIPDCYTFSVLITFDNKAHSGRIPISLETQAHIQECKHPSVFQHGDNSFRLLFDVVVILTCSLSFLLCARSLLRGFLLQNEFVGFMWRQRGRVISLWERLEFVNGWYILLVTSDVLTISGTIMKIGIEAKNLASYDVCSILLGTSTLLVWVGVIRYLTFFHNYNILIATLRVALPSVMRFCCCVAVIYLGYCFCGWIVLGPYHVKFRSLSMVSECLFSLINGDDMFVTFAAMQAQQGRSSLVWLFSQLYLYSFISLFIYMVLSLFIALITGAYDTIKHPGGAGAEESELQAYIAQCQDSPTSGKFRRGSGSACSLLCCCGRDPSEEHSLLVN
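TRPML1-DL cells, Tet-induced overnight (~16 h, 37 degrees C), loaded 45-90 min at room temperature with Ca8 no-wash calcium dye plus quencher. FDSS fluorescence: 10 s baseline, compound pin-transfer, 110 s agonist read, then EC80 54-4 (4uM final) and 110 s antagonist read.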
Six1-Eya2 inh: qHTS Assay for Inhibitors of the Six1/Eya2 Interaction | Homeobox protein SIX1 (Homo sapiens) + Protein phosphatase EYA2 (Homo sapiens), … | AlphaScreen GST-Six1/His-Eya2 binding, biochemical; hits give low values; control for the full effect not named in the record | activity change, % (concentration not given with the values) | 360,000 compounds, 0.56% hits | AID 651725, 2012; in the data active = activity change below about -65%; inconclusive = about -30% to -65%; inactive = above about -30%; also: % is scaled to controls: 0 for no effect and ±100 for the full control effect
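AlphaScreen luminescence read after one hour at 37 °C in darkness. Pin-transferred compounds met GST-Six1 and His-Eya2 protein (5X stock 250 nM/500 nM) plus glutathione donor and Ni-chelate acceptor beads (5X, 50 ug/mL).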
TRPV1 PAM: HTS Assay for Compounds that Act as Potentiators of the Vanilloid Receptor 1; potentiation, % at 8.33 µM; AID 540277, 2011; 320,000 compounds, 0.02% hits; TRPV1-expressing cells, Fluo-8 calcium influx, capsaicin EC20 potentiation; host cell line not named in the record; control for the full effect not named in the record; active means potentiation above 80%; inconclusive means 30% to 80%; inactive means below 30%; also: 0% is about no effect
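Fluo-8 calcium influx in TRPV1-expressing cells, kinetic read (ex 480/em 520 nm). Compound added and read 3 min for agonist activity, followed by capsaicin at EC20 final and 2 min further read for enhancement.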
TRPML1 blocker: qHTS for Inhibitors of the Human Mucolipin Transient Receptor Potential 1 (TRPML1) | Mucolipin-1 (Homo sapiens), Q9GZU1 | TRPML1-inducible cells, Ca2+ dye fluorescence, FDSS; hits give low values; inhibition of EC80 agonist-evoked calcium signal | activity change, negative = inhibition, % (no concentration beside the values) | 390,000 compounds, 0.02% hits | AID 624415, 2012; in the data active means activity change below about -50%; inconclusive means about -30% to -50%; inactive means above about -30%;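 also: stimulus is agonist 54-4 at its EC80 concentration; % is scaled to controls: 0 for no effect and ±100 for the full control effect; compound concentration not given in the record; the text of the record puts the active cut at -80%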
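Tet-induced TRPML1-DL cells loaded with Ca8 no-wash calcium dye were read kinetically on FDSS. Compound addition was followed by EC80 agonist 54-4 (4 uM final); inhibition was read over 110 s.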
Starred values were filed as active, the others as inactive; u = inconclusive; x = no result given.

nr | structure | D2 PAM | CtBP-E1A inh | TRPML1 ag | Six1-Eya2 inh | TRPV1 PAM | TRPML1 blocker
1 | c1ccc(COc2cccc(-c3cc4nc(NCc5ccc6c(c5)OCO6)ccn4n3)c2)cc1 | -8 | -4 | 0.3 | -13 | x | x
2 | O=c1[nH]c(=S)[nH]c2c1C(c1ccccc1)OC(C1CCCCC1)C2 (stereo not given) | x | 0 | -1.2 | 0 | x | x
3 | COc1ccccc1NC(=O)CSc1nnc(-c2ccco2)o1 | 1 | 3 | -0.6 | 3 | 14 | -4
4 | O=C(COc1ccccc1Br)c1ccc(O)cc1O | -18 | 5 | -0.1 | -1 | 0 | 7
5 | N/C(Cc1cccc2ccccc12)=N\O | 7 | 1 | 0.1 | -8 | x | -11
6 | S=C(NCCc1ccc(Cl)cc1)Nc1ccc(Cl)cc1Cl | -16 | 10 | 1.4 | u | -24 | -25
7 | CCCCCCCCCCOC(=O)Cn1c(COc2cccc(C)c2)[n+](C)c2ccccc21 | -5 | -6 | -0.3 | 6 | -15 | 39
8 | Cc1ccsc1C(=O)Nc1ccc(F)c([N+](=O)[O-])c1 | -13 | 23 | -0.7 | 0 | -7 | 7
9 | O=C(O)CCNC(=O)c1ccc(Br)o1 | -8 | 8 | -0.4 | 0 | 8 | -5
10 | O=C(NCCN1CCOCC1)c1cc(S(=O)(=O)Nc2ccccc2F)c(Cl)cc1Cl | -2 | 3 | x | 18 | 14 | x
11 | O=C(Cc1ccccc1)NCC(=O)N1CCN(Cc2cccc(Cl)c2)CC1 | -2 | x | -1.1 | 0 | x | 0
12 | COC(=O)c1sc(NC(=O)COc2ccccc2)nc1C | -22 | -8 | -0.5 | 8 | -8 | -14
13 | Cc1c(Cl)cccc1NC(=S)NC(=O)c1ccccc1 | -16 | 3 | 0.1 | -3 | x | -16
14 | O=C(Nn1c(C2CCCCC2)nc2ccccc2c1=O)c1ccc(Cl)c([N+](=O)[O-])c1 | -9 | -5 | 0.1 | -1 | u | 27
15 | CC(C)(C)c1ccccc1NC(=O)Cn1c(=O)cnc2ccccc21 | 6 | 4 | -0.3 | 4 | -4 | -4

An excerpt from above in order of number of heavy atoms, lowest first:
nr | structure | D2 PAM | CtBP-E1A inh | TRPML1 ag | Six1-Eya2 inh | TRPV1 PAM | TRPML1 blocker
9 | O=C(O)CCNC(=O)c1ccc(Br)o1 | -8 | 8 | -0.4 | 0 | 8 | -5
5 | N/C(Cc1cccc2ccccc12)=N\O | 7 | 1 | 0.1 | -8 | x | -11
4 | O=C(COc1ccccc1Br)c1ccc(O)cc1O | -18 | 5 | -0.1 | -1 | 0 | 7
13 | Cc1c(Cl)cccc1NC(=S)NC(=O)c1ccccc1 | -16 | 3 | 0.1 | -3 | x | -16
6 | S=C(NCCc1ccc(Cl)cc1)Nc1ccc(Cl)cc1Cl | -16 | 10 | 1.4 | u | -24 | -25
3 | COc1ccccc1NC(=O)CSc1nnc(-c2ccco2)o1 | 1 | 3 | -0.6 | 3 | 14 | -4
2 | O=c1[nH]c(=S)[nH]c2c1C(c1ccccc1)OC(C1CCCCC1)C2 (stereo not given) | x | 0 | -1.2 | 0 | x | x
15 | CC(C)(C)c1ccccc1NC(=O)Cn1c(=O)cnc2ccccc21 | 6 | 4 | -0.3 | 4 | -4 | -4
11 | O=C(Cc1ccccc1)NCC(=O)N1CCN(Cc2cccc(Cl)c2)CC1 | -2 | x | -1.1 | 0 | x | 0
10 | O=C(NCCN1CCOCC1)c1cc(S(=O)(=O)Nc2ccccc2F)c(Cl)cc1Cl | -2 | 3 | x | 18 | 14 | x
7 | CCCCCCCCCCOC(=O)Cn1c(COc2cccc(C)c2)[n+](C)c2ccccc21 | -5 | -6 | -0.3 | 6 | -15 | 39
1 | c1ccc(COc2cccc(-c3cc4nc(NCc5ccc6c(c5)OCO6)ccn4n3)c2)cc1 | -8 | -4 | 0.3 | -13 | x | x

More records:
nr | structure | D2 PAM | CtBP-E1A inh | TRPML1 ag | Six1-Eya2 inh | TRPV1 PAM | TRPML1 blocker
16 | C=C1CCN([C@@H](C)C(=O)NCCCCCC)S(=O)(=O)c2ccccc21 | -9 | -4 | -0.8 | 5 | -1 | 26
17 | COC(=O)c1sc(NC(=O)c2c(OC)cccc2OC)c(C#N)c1C | 1 | x | 0.8 | 0 | 10 | -5
18 | COc1ccc(/C=C2\N=C(c3ccccc3)NNC2=O)cc1 | -17 | 5 | -0.3 | 3 | 13 | 2
19 | O=C(CSc1nnc(CNC(=O)c2ccccc2)o1)NCCc1ccccc1 | -12 | -12 | 0.8 | -6 | 5 | 44
20 | CC1=C(C(=O)N2CCOCC2)CC(CC(=O)NC(c2ccccc2)c2ccccc2)C(=O)N1CCC1=CCCCC1 (stereo not given) | -7 | -5 | -0.3 | 7 | x | x
21 | O=C1c2ccccc2C(=O)N1CCCc1nc2ccccc2c(=O)n1Cc1ccco1 | -4 | -3 | 1.6 | -2 | -3 | 2
22 | O=C(COC(=O)c1cccs1)Nc1nnc(-c2ccccc2)o1 | 10 | -6 | 0.5 | u | 2 | -5
23 | CCC(C)c1ccc(NC(=O)c2cnn3c(C(F)F)cc(C)nc23)cc1 (stereo not given) | -2 | -16 | 2.6 | 4 | -2 | 63
24 | COC(=O)c1ccc(NC(=O)C2CCCN2S(=O)(=O)c2ccc(C)cc2)cc1 (stereo not given) | -9 | 2 | 2.0 | 1 | 3 | -13
25 | O=C(CSc1n[nH]c(=O)n1C1CC1)c1ccc(F)cc1 | -18 | 5 | 1.6 | 0 | -6 | -8
26 | COC(=O)CC1C(=O)NCCN1C(=S)Nc1cccc(C(F)(F)F)c1 (stereo not given) | -35 | x | 2.4 | 1 | -3 | 21
27 | O=C(CN1C(=O)NC2(CCCC2)C1=O)OCc1cccc(Br)c1 | 2 | x | -0.7 | -3 | -4 | 0
28 | CCCCn1c(=O)n(CC(O)c2ccccc2)c(=O)c2c1ncn2C1CCCC1 (stereo not given) | 0 | -2 | 3.3 | 1 | 13 | -8
29 | COc1ccc(C(=O)OCC(=O)NCC2CCCO2)cc1 (stereo not given) | -6 | 4 | -0.1 | 11 | 1 | -5
30 | O=C(Cc1cn2ccsc2n1)Nc1ccccc1Oc1ccccc1 | 7 | 4 | -1.1 | -2 | 0 | -8
31 | CCCC[C@@H]1CNCCN1CCc1cc(C(F)(F)F)cc(C(F)(F)F)c1 | -16 | 1 | 0.4 | 1 | 2 | 11
32 | CCOc1ccc(NC(=O)CCC(=O)N/N=C(\C)c2cccs2)cc1 | -8 | 0 | 0.8 | 3 | -1 | -6
33 | Cc1ccc(N/N=C(\C#N)C(=N)N2CCCCCC2)cc1 | -18 | -8 | -0.4 | -5 | -20 | -27
34 | CCNC(=O)N(C)C[C@H]1N[C@@](C)(C(=O)OC)[C@H]2C(=O)N(Cc3ccccc3)C(=O)[C@@H]12 | -5 | 2 | -0.7 | 3 | x | 7
35 | S=c1nn[nH]n1C12CC3CC(CC(C3)C1)C2 | -10 | 10 | 0.1 | 20 | 1 | 11
36 | Cc1cccc(NS(=O)(=O)c2ccc(C(=O)NCCCN3CCOCC3)cc2)c1C | -11 | -6 | -0.1 | 5 | 5 | 2
37 | CCOC(=O)c1cc(OCC)c2c(ccc3cc(OC)ccc32)n1 | -27 | u | -0.3 | 13 | x | 15
38 | COc1ccc(CCc2nnc(CCC(=O)NCc3cc(C(C)C)no3)o2)cc1 | -3 | 9 | -0.3 | -5 | 4 | 7
39 | COc1cccc(/C=C/C(=O)OCC(=O)NCCNC(=O)COC(=O)/C=C/c2cccc(OC)c2)c1 | -12 | 18 | -0.3 | -11 | 4 | -7
40 | COC(=O)CCCCCCCCC(O)C[N+]1(C)CCOCC1 (stereo not given) | -8 | 6 | -0.4 | 14 | 6 | -12
41 | COC(=O)c1cc(NC(=S)NC(=O)c2ccccc2)ccc1N1CCOCC1 | -7 | -6 | 0.1 | -8 | 2 | -3
42 | c1ccc(Cn2c(NCc3ccco3)nc3ccccc32)cc1 | -10 | -7 | 0.2 | -12 | -3 | 7
43 | Cc1ccccc1-n1c(Cn2c(=O)sc3ccccc32)nnc1SCC(=O)Nc1nccs1 | 0 | 4 | 4.0 | 0 | 3 | -3
44 | O=C(C[C@@H]1C/C=C\C[C@H](NC(=O)OCC2c3ccccc3-c3ccccc32)C(=O)OC[C@H]2CCCN2C1=O)NCCO | -60 | 3 | -0.6 | 6 | x | -1
45 | CN(C)C1=C(Cl)C(=O)N(c2ccc(Cl)c(Cl)c2)C1=O | -4 | 6 | -0.2 | 8 | 0 | -3
46 | Cc1nc2c(-c3ccc(Cl)cc3)cnn2c2c1CCC2 | -1 | 30 | 0.8 | 27 | 3 | 19
47 | CC1(C)OC(=O)C(=CNC(=O)c2c(F)cccc2F)C(=O)O1 | -19 | 1 | 0.8 | 5 | -3 | -9
48 | O=C(CNC(=O)c1ccc(Br)cc1)N/N=C/c1cccnc1 | -15 | x | 0.8 | -8 | u | -8
49 | C[C@@H](O)C(C(=O)N1CCNCC1)n1cc([C@@H](N)CCCCN)nn1 (stereo not given in full) | -6 | 0 | -0.4 | 2 | 2 | 0
50 | COc1cccc(Cn2nnc(C(=O)Nc3ccc(C)cc3)c2N)c1 | -2 | 5 | 1.5 | 4 | x | 4
51 | O=C(COc1ccc(-c2ccccc2)cc1)NNC(=O)NC1CCCCC1 | -13 | 8 | 1.8 | 2 | 15 | -3
52 | COc1ccc(C(C#N)N2N=C(C)CC2c2ccccc2)cc1 (stereo not given) | -1 | 1 | -0.6 | 8 | 1 | -12

From PubChem BioAssay
